VACV mCherry inh = inhibitors of vaccinia virus infection (mCherry reporter signal). Potency, µM (series often up to 36.5 µM), without a hit: at the highest dose activity change, negative = inhibition, usual class: inhibitors. Vaccinia virus mCherry reporter infection, fluorescence; about a quarter of the inactives have no number. 0.63% of 310,000 active; active = well fitted inhibition curve with a large enough effect; inconclusive = small, poorly fitted or top-dose-only effect; inactive = no such curve, though single readings can be large or run the other way; tested in A549 cells; note: nearly all actives have a fitted effect of over 35% in size; inactives centre near -10
VACV Venus inh = inhibitors of vaccinia virus (Venus reporter). Vaccinia virus Venus reporter expression, fluorescence. Potency, µM (doses to about 36.5 µM), inactives show at the highest dose activity change, negative = inhibition, usual class: inhibitors. 0.46% of 330,000 active. AID 720580; active means well fitted inhibition curve with a large enough effect; inconclusive means small, poorly fitted or top-dose-only effect; inactive means no such curve, though single readings can be large or run the other way; tested in A549 cells; note: nearly all actives have a fitted effect of over 30% in size; inactives centre near -10
* marks the source's active call; other numbers are inactive results; & = joins results of further samples; [ ] = remark or other dose. % is set by controls: 0 for no effect and ±100 for the full control effect; potency is the fitted concentration of half-maximal effect. No enrichment for hits; about 0.82% have a hit in one of these screens.

How did O=C(/C=C/Nc1ccc(F)c(F)c1)c1ccc(Br)cc1 do in these assays?
VACV mCherry inh: -5.4%; VACV Venus inh: 4.2%

Results for C[C@H](CO)N1C[C@H](C)[C@H](CN(C)C(=O)Nc2cccc(Oc3ccccn3)c2)OCc2cnnn2CCCC1=O ?
VACV mCherry inh: 7.4%; VACV Venus inh: -4.5%

How did COCc1cc(=O)[nH]c(Cc2c(Cl)cccc2Cl)n1 do in these assays?
VACV mCherry inh: -9.4%; VACV Venus inh: -12.4%

What do the screens show for `C/C(=N\NC(=O)c1ccc(NS(=O)(=O)c2cccs2)cc1)c1ccc(C(C)(C)C)cc1`?
VACV mCherry inh: -8.6%; VACV Venus inh: -8.4%

What do the screens show for `CC1CN(CCn2cnc3c(N)ncnc32)CC(C)O1` (stereo not given)?
VACV mCherry inh: 0.0%; VACV Venus inh: -3.4%

Results for COc1cccc(/C=C/C(=O)OCC(=O)Nc2cccc(S(=O)(=O)N3CCCCC3)c2)c1OC ?
VACV mCherry inh: -21.8%; VACV Venus inh: -16.8%

How did CCc1ccc(OCC(=O)Nc2ccc(CN3CCCCC3)cc2)cc1 do in these assays?
VACV mCherry inh: inactive; VACV Venus inh: -23.1%

How did COc1ccc(NC(=O)CN2C(=O)CSc3ccc(S(=O)(=O)N4CCC(C)CC4)cc32)cc1 do in these assays?
VACV mCherry inh: -19.5%; VACV Venus inh: -16.0%

How did Cc1ccc(C2(C)NC(=O)N(CC(=O)Nc3ccc(-c4nc5ccc(C)cc5s4)cc3)C2=O)cc1 (stereo not given) do in these assays?
VACV mCherry inh: -8.9%; VACV Venus inh: -21.8%

What do the screens show for `CS(=O)(=O)N1CCC(C(=O)Nc2ccccc2Sc2ccccc2)CC1`?
VACV mCherry inh: -7.0%; VACV Venus inh: -5.3%

Results for COc1ccc(OCC(=O)Nc2ccccc2Cl)cc1 ?
VACV mCherry inh: -4.3%; VACV Venus inh: 2.4%

Results for CC(=O)c1ccccc1NC(=O)CSc1nc2ccccc2c(=O)n1CCCN1CCOCC1 ?
VACV mCherry inh: -11.2%; VACV Venus inh: -5.3%

Results for COc1ccc(-c2c(-c3ccc4c(c3)OCO4)noc2C)cn1 ?
VACV mCherry inh: -16.9%; VACV Venus inh: -4.8%&-12.6%

Results for CNC(=O)c1c(O)c2cccc3c2n(c1=O)CC3 ?
VACV mCherry inh: -8.6%[1.46 µM]; VACV Venus inh: -10.8%

How did Cc1noc(C)c1S(=O)(=O)N(CC(=O)NCCc1ccc(Cl)cc1)c1ccc(C(C)C)cc1 do in these assays?
VACV mCherry inh: -4.2%; VACV Venus inh: 5.1%

What do the screens show for `O=C(Nc1cccnc1)c1cccc(S(=O)(=O)N2CCCC2)c1`?
VACV mCherry inh: inactive; VACV Venus inh: -8.9%

How did c1ccc(-c2cn3ccccc3n2)cc1 do in these assays?
VACV mCherry inh: -7.5%; VACV Venus inh: -5.1%

What do the screens show for `CC1=C([N+](=O)[O-])C(c2ccc3c(c2)OCO3)N(C)C(=O)N1C` (stereo not given)?
VACV mCherry inh: inactive; VACV Venus inh: -11.6%

How did Fc1ccc(Nc2nc(NCc3ccco3)nc3nccnc23)cc1 do in these assays?
VACV mCherry inh: 8.9%; VACV Venus inh: -8.4%

Results for O=C(Cn1c(=O)n(CCC(=O)N2CCc3ccccc3C2)c(=O)c2ccccc21)NCC1CCCO1 (stereo not given) ?
VACV mCherry inh: -0.3%; VACV Venus inh: -11.2%

How did CCCCNC(=O)COC(=O)c1ccc(N(C)C)cc1 do in these assays?
VACV mCherry inh: -6.8%; VACV Venus inh: -7.6%

What do the screens show for `CC(C)N=C(NS(=O)(=O)c1ccc(Br)cc1)c1ccc(Cl)cc1`?
VACV mCherry inh: -15.3%; VACV Venus inh: -9.1%

How did CC(C)N(C(=O)[C@H]1C[C@H](CC(=O)NCC23CC4CC(CC(C4)C2)C3)C(=O)N2CCc3c([nH]c4cc(CCC(=O)N(C)C)ccc34)[C@]12C)C(C)C do in these assays?
VACV mCherry inh: -15.1%; VACV Venus inh: -26.9%

How did COc1ccc2cc(C(=O)COC(=O)COc3ccc4c(C)cc(=O)oc4c3)ccc2c1 do in these assays?
VACV mCherry inh: -17.1%; VACV Venus inh: -16.0%

Results for COc1ccc(CCNC(=O)CSc2nc3[nH]ncc3c(=O)n2-c2ccccc2Br)cc1OC ?
VACV mCherry inh: -16.1%; VACV Venus inh: 0.9%

Results for CCOC(=O)c1c(-c2ccc(OC)cc2)csc1/N=C/C1C(=O)CCCC1=O ?
VACV mCherry inh: inactive; VACV Venus inh: 47.6%[activator]

How did CN(C)S(=O)(=O)c1ccc(C(=O)Nc2nnc(SCC(=O)NCC3CCCO3)s2)cc1 (stereo not given) do in these assays?
VACV mCherry inh: inactive; VACV Venus inh: -7.5%

Results for CCN(CC(=O)Nc1ccccc1OC)C(=O)Cn1cnc2ccccc2c1=O ?
VACV Venus inh: -31.3%

How did COc1ccc(-n2c(CC3C(=O)N(C)c4ccc(C)cc43)nc3ccccc3c2=O)cc1 (stereo not given) do in these assays?
VACV mCherry inh: -7.6%; VACV Venus inh: -7.5%

What do the screens show for `Cc1ccc(CS(=O)Cc2ccc(C(=O)N3CCN(c4ccc(F)cc4)CC3)o2)cc1` (stereo not given)?
VACV mCherry inh: -24.0%; VACV Venus inh: -11.9%

Results for CCOC(=O)C1CCN(c2c(N3CCN(c4ccccc4OC)CC3)c(=O)c2=O)CC1 ?
VACV mCherry inh: -3.1%; VACV Venus inh: -5.7%

How did CCOc1ccc(C(=O)C(C)OC(=O)C2CCN(c3ccc(C(F)(F)F)cn3)CC2)cc1 (stereo not given) do in these assays?
VACV mCherry inh: -28.4%; VACV Venus inh: inconclusive

How did O=C1Nc2ccc([N+](=O)[O-])cc2C1(O)N1CCCCC1 (stereo not given) do in these assays?
VACV mCherry inh: -12.8%; VACV Venus inh: -1.2%

How did O=C(O)CCCCCNc1ncnc2ccc(Br)cc12 do in these assays?
VACV mCherry inh: -9.0%; VACV Venus inh: -15.3%

What do the screens show for `CN1/C(=C\C(=O)CSc2nnc(N)s2)C(C)(C)c2ccccc21`?
VACV mCherry inh: -10.0%; VACV Venus inh: -11.9%

How did Cc1c(C(=O)NCc2cccc([N+](=O)[O-])c2)sc(=O)n1Cc1ccc(C(C)C)cc1 do in these assays?
VACV mCherry inh: 9.0%; VACV Venus inh: -7.1%

What do the screens show for `COC(=O)CCN(C(=O)c1c(C)oc2ncnc(N3CCOCC3)c12)c1ccccc1`?
VACV mCherry inh: -14.4%; VACV Venus inh: -5.4%

How did Cc1cn([C@H]2C[C@H](O)[C@@H](/C=C/C(=O)NCCCc3ccccc3)O2)c(=O)[nH]c1=O do in these assays?
VACV mCherry inh: 4.7%; VACV Venus inh: -1.4%

What do the screens show for `Cc1cccc(N2CCN(c3nc4ccccc4c4nnc(C)n34)CC2)c1C`?
VACV mCherry inh: -15.1%; VACV Venus inh: -13.1%

What do the screens show for `CCC(=O)Nc1ccc(/C(C)=N/NC(=O)c2c(-c3ccccc3Cl)noc2C)cc1`?
VACV mCherry inh: -8.3%; VACV Venus inh: -0.6%

Results for Cc1nc2ccc(C(=O)N3CCc4c(cnc(C)c4CNC(=O)/C=C/c4cccs4)C3)cc2nc1C ?
VACV mCherry inh: -0.1%; VACV Venus inh: -13.6%

How did C=CCN1C=C2C(=O)C(C)(OC(=O)CCC(=O)OC)C(=O)C=C2C=C1C1CC1 (stereo not given) do in these assays?
VACV mCherry inh: inactive; VACV Venus inh: -1.9%

How did c1cncc(-c2cccnc2)c1 do in these assays?
VACV mCherry inh: -11.0%; VACV Venus inh: -14.9%

How did COc1ccc(N(CC(=O)Nc2cccc(C(C)=O)c2)S(C)(=O)=O)cc1OC do in these assays?
VACV Venus inh: -15.6%

Results for O=c1[nH]c(Nc2ccccc2)cc2ccccc12 ?
VACV Venus inh: inconclusive

Results for CCCCN(C(=O)c1ccccc1Br)C(c1ccc(OC)cc1)c1nc2ccccc2[nH]1 (stereo not given) ?
VACV mCherry inh: inactive; VACV Venus inh: -1.9%

What do the screens show for `C[C@H](CO)N1C[C@H](C)[C@@H](CN(C)C(=O)Nc2ccc(C(F)(F)F)cc2)Oc2c(NC(=O)C3CCCCC3)cccc2C1=O`?
VACV mCherry inh: inactive; VACV Venus inh: 0.0%

How did COc1ccc(NC(=O)Cn2cc(S(=O)(=O)Cc3ccccc3)c3ccccc32)c(OC)c1 do in these assays?
VACV mCherry inh: -10.8%; VACV Venus inh: -4.5%

What do the screens show for `CCc1cccc(OCC(=O)Nc2ccc(C(=O)O)cc2NC(=O)COc2cccc(CC)c2)c1`?
VACV mCherry inh: -17.2%; VACV Venus inh: -5.9%

How did Cc1ccc(CNC(=O)C2CCC(=O)N(CCc3ccc(Cl)cc3)C2)cc1 (stereo not given) do in these assays?
VACV mCherry inh: -23.4%; VACV Venus inh: -21.2%

Six compounds picked at random from the list so far, as already listed:
Results for CCCCN(C(=O)c1ccccc1Br)C(c1ccc(OC)cc1)c1nc2ccccc2[nH]1 (stereo not given) ?
VACV mCherry inh: inactive; VACV Venus inh: -1.9%

Results for O=c1[nH]c(Nc2ccccc2)cc2ccccc12 ?
VACV Venus inh: inconclusive

How did c1cncc(-c2cccnc2)c1 do in these assays?
VACV mCherry inh: -11.0%; VACV Venus inh: -14.9%

How did COc1ccc(NC(=O)Cn2cc(S(=O)(=O)Cc3ccccc3)c3ccccc32)c(OC)c1 do in these assays?
VACV mCherry inh: -10.8%; VACV Venus inh: -4.5%

What do the screens show for `CCc1cccc(OCC(=O)Nc2ccc(C(=O)O)cc2NC(=O)COc2cccc(CC)c2)c1`?
VACV mCherry inh: -17.2%; VACV Venus inh: -5.9%

How did COc1ccc(N(CC(=O)Nc2cccc(C(C)=O)c2)S(C)(=O)=O)cc1OC do in these assays?
VACV Venus inh: -15.6%

(more compounds)
Results for Cc1ccc(NC(=O)COC(=O)c2nn(-c3ccc(Cl)cc3)cc2O)cc1 ?
VACV mCherry inh: -8.0%; VACV Venus inh: -29.2%

How did CCc1ccc(-c2nc(-c3cc4ccccc4oc3=O)sc2C)cc1 do in these assays?
VACV mCherry inh: 0.6%; VACV Venus inh: 5.2%

What do the screens show for `CCCc1nnc(SCC(=O)NC2CC2)n1C`?
VACV mCherry inh: 3.0%; VACV Venus inh: -7.8%

How did COc1ccc(CN2CCC(C(=O)NCCc3ccc(OC)c(OC)c3)CC2)c(OC)c1 do in these assays?
VACV Venus inh: 0.9%

Results for C#CCNC(=O)C1=C[C@@H](c2cn(C(C)=O)c3ccccc23)C[C@@H](OCCCCO)O1 ?
VACV mCherry inh: inactive; VACV Venus inh: -14.1%

Results for COc1ccccc1-c1cc(C(=O)NC2CCCC2)no1 ?
VACV mCherry inh: inactive; VACV Venus inh: -13.8%

What do the screens show for `O=C1CCC(C2CCc3cc(O)ccc3C2)C1` (stereo not given)?
VACV mCherry inh: inactive; VACV Venus inh: -17.9%

What do the screens show for `CC(C)(C)c1ccc(NC(=O)Nc2ccc(OCC(=O)N3CCOCC3)cc2)cc1`?
VACV mCherry inh: -10.8%; VACV Venus inh: -15.2%

What do the screens show for `c1ccc(-c2csc(-c3cccnc3)n2)cc1`?
VACV mCherry inh: -0.4%; VACV Venus inh: 3.6%

How did O=S(=O)(Cc1ccc(Cl)cc1)Nc1ccc(Cl)cn1 do in these assays?
VACV mCherry inh: 3.2%; VACV Venus inh: -0.8%

What do the screens show for `CCOc1cc(N2CCOCC2)c(OCC)cc1NC(=O)CN1C(=O)NC(Cc2ccccc2)C1=O` (stereo not given)?
VACV mCherry inh: -3.1%; VACV Venus inh: -0.1%

What do the screens show for `COc1ccccc1N1CCN(C(=O)C2CCN(S(=O)(=O)Cc3ccccc3)CC2)CC1`?
VACV mCherry inh: -8.3%; VACV Venus inh: 2.0%

What do the screens show for `CCO[C@H]1OC(C(=O)N2CCN(C)CC2)=C[C@@H](c2ccc(C(F)(F)F)cc2)[C@@H]1CCCO`?
VACV mCherry inh: -10.2%; VACV Venus inh: -15.3%

What do the screens show for `COc1ccc(C(=O)NCCn2cc(SCC(=O)NCC3CCCO3)c3ccccc32)cc1OC` (stereo not given)?
VACV mCherry inh: inactive; VACV Venus inh: -15.8%

What do the screens show for `Cc1ccc(C)c(NC(=O)CSc2nc3ccc(N4C(=O)c5ccccc5C4=O)cc3s2)c1`?
VACV mCherry inh: -2.5%; VACV Venus inh: -26.7%

What do the screens show for `CCc1ccccc1NC(=S)N(Cc1cccs1)C1CCCC1`?
VACV mCherry inh: inactive; VACV Venus inh: 6.3%

How did Cc1scc(C(=O)NNC(=O)CCC(=O)O)c1C do in these assays?
VACV mCherry inh: -4.1%; VACV Venus inh: 5.8%

How did O=C(O)COc1ccc(C(=O)Cc2ccc3c(c2)OCCCO3)c(O)c1 do in these assays?
VACV mCherry inh: -6.9%; VACV Venus inh: -3.1%

What do the screens show for `CCC(=O)Nc1c(-c2ccc(C)cc2)nc2ccc(C)cn12`?
VACV mCherry inh: -8.3%; VACV Venus inh: -6.5%

How did CCc1c(-c2n[nH]c(=S)n2Cc2ccccc2)csc1C do in these assays?
VACV mCherry inh: inactive; VACV Venus inh: -13.5%

Results for CCc1ccc(NC(=O)CSc2nc3c(sc4ccccc43)c(=O)n2CCCOC(C)C)cc1 ?
VACV mCherry inh: -22.4%; VACV Venus inh: -27.0%

How did CCCCN(C(=O)C(C)Oc1ccc(Br)cc1)c1c(N)n(Cc2ccccc2)c(=O)[nH]c1=O (stereo not given) do in these assays?
VACV mCherry inh: inactive; VACV Venus inh: -13.1%

Results for Cc1cccc(N2CCN(C(c3ccccc3)c3nnnn3CC3CCCO3)CC2)c1C (stereo not given) ?
VACV mCherry inh: inconclusive; VACV Venus inh: inconclusive
